CDC25B CDK2 inh: human CDC25B-CDK2/CyclinA binding inhibition; P30305+P24941; HTRF CDC25B-CDK2/CyclinA binding, anti-His/anti-Flag; stronger effect = higher value; z-score (concentration not given with the values); hit rate 0.72% among 94,000;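 further: score is relative to mean and SD of negative controls; strong numbers were not always called active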
TAR Tat displ: HIV-1 TAR-Tat binding disruption. hit rate 0.6% among 100,000. HIV-1 TAR RNA, Tat peptide displacement FRET; stronger effect = higher value. z-score (no concentration beside the values). AID 1259389;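 further: score is relative to mean and SD of negative controls; some compounds called inactive have numbers as strong as hits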
* = called active by the depositor.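 How the source made its calls: active means z-score from 3 up in half or more of its runs; inactive means the rest.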 Outcome played no part in choosing rows. Share with any hit: about 0.89%.

A first look (7 entries):
`COCCNCc1cccn1-c1sc(C)c(C)c1C(=O)O` gave TAR Tat displ -0.4.
CC(C)C1C(=O)Nc2ccc(S(=O)(=O)NCc3ccc(Cl)cc3)cc21 (stereo not drawn) was read as TAR Tat displ 0.32.
O=C(CN1CCCCC1)Nc1cc(Cl)cc(Cl)c1 was read as CDC25B CDK2 inh 0.3.
Cc1cc(C(=O)N2CCN(c3ncccn3)CC2)n[nH]1 was read as TAR Tat displ 0.03.
`O=C(Nc1cc2ccccc2oc1=O)C1CCCCC1` gave CDC25B CDK2 inh -1.71.
For Cc1nc(Oc2ccc(F)cc2Cl)c2oc3ccccc3c2n1 the results were TAR Tat displ 2.43.
For CCOc1ccc(/C=C/c2nc(C#N)c(NC(C)c3ccccc3)o2)cc1 (stereo not drawn) the results were CDC25B CDK2 inh -0.36 and TAR Tat displ 3.44.

Main list, from the first entry:
`COCCNCc1cccn1-c1sc(C)c(C)c1C(=O)O` gave TAR Tat displ -0.4.
CC(C)C1C(=O)Nc2ccc(S(=O)(=O)NCc3ccc(Cl)cc3)cc21 (stereo not drawn) was read as TAR Tat displ 0.32.
O=C(CN1CCCCC1)Nc1cc(Cl)cc(Cl)c1 was read as CDC25B CDK2 inh 0.3.
Cc1cc(C(=O)N2CCN(c3ncccn3)CC2)n[nH]1 was read as TAR Tat displ 0.03.
`O=C(Nc1cc2ccccc2oc1=O)C1CCCCC1` gave CDC25B CDK2 inh -1.71.
For Cc1nc(Oc2ccc(F)cc2Cl)c2oc3ccccc3c2n1 the results were TAR Tat displ 2.43.
For CCOc1ccc(/C=C/c2nc(C#N)c(NC(C)c3ccccc3)o2)cc1 (stereo not drawn) the results were CDC25B CDK2 inh -0.36 and TAR Tat displ 3.44.
Screening Cc1ccc(C)c(N2CC(c3nc4ccccc4[nH]3)CC2=O)c1 (stereo not drawn) returned CDC25B CDK2 inh -2.3 and TAR Tat displ -0.62.
For Cc1csc(NC(=O)CSc2ccc3nnc(-c4ccc(F)cc4)n3n2)n1 the results were CDC25B CDK2 inh -0.27.
COc1ccc(-c2csc3ncnc(NCCc4ccsc4)c23)cc1 was read as TAR Tat displ 1.87.
O=C(O)C1C(c2ccc(O)cc2)C(C(=O)O)C1c1ccc(O)cc1 (stereo not drawn) was read as CDC25B CDK2 inh -1.77.
Screening CC1=C(C(=O)Nc2ccc(Cl)cc2C(=O)NCCN(C)C)SCCO1 returned TAR Tat displ 0.54.
`CCOc1ccc(N2C(=O)c3cccnc3C2Nc2ccc(Cl)cc2)cc1` (stereo not drawn) gave CDC25B CDK2 inh -1.27 and TAR Tat displ -0.84.
`CCC(C)NC(=O)c1nc(-c2cn(-c3ccc(Cl)cc3)nc2C)no1` (stereo not drawn) gave TAR Tat displ -0.4.
`CC1CCCC(C)N1CCCNC(=O)C(=O)Nc1ccc2nc3n(c(=O)c2c1)CCCCC3` (stereo not drawn) gave CDC25B CDK2 inh -1.65.
Screening Cc1ccc(CNC(=O)c2cc(=O)sc3nc4ccccc4n23)o1 returned TAR Tat displ -0.51.
`Cn1c(=O)c2c(SCC(=O)N3CCc4ccccc43)nc(-c3cccs3)nc2n(C)c1=O` gave CDC25B CDK2 inh -1.65.
For c1ccc(CC2=NNC(Cc3ccccc3)=NN2)cc1 the results were CDC25B CDK2 inh -0.98.
`COC(=O)c1ccc(NS(=O)(=O)c2ccc3c(c2)n(C)c(=O)n3C)cc1` gave CDC25B CDK2 inh 1.21 and TAR Tat displ 1.51.
Screening CCCCN(CCCC)Cc1nnc(-c2ccccc2)o1 returned CDC25B CDK2 inh -0.35 and TAR Tat displ 1.72.
Screening CCC12CN3CC(CC)(CN(C1)C3c1ccc(OC)cc1)C2O (stereo not drawn) returned CDC25B CDK2 inh -0.43 and TAR Tat displ -0.51.
Screening CN(C(=O)Cc1noc2ccccc12)c1ccccc1Cl returned CDC25B CDK2 inh -1.94 and TAR Tat displ 1.76.
CN(C(=O)c1cc2c(s1)-c1ccccc1S(=O)(=O)C2)c1cccc(Cl)c1 was read as CDC25B CDK2 inh -0.89.
Screening O=C(Cc1ccc(NC(=O)N2CCSc3ncccc32)cc1)NC1CC1 returned TAR Tat displ 0.82.
Screening O=C(Cn1ccc2cc(S(=O)(=O)N3CCCCC3)ccc21)NCc1cccs1 returned TAR Tat displ -1.1.
`COc1ccc(OC)c(N2C(=O)CC(Sc3nc4ccccc4s3)C2=O)c1` (stereo not drawn) gave CDC25B CDK2 inh -1.79 and TAR Tat displ -0.13.
CCNc1nc(NCCCOC)nc2c1cnn2C was read as TAR Tat displ 0.68.
`Cc1cccc(-n2cc(-c3ccccc3)[nH]c2=S)c1` gave CDC25B CDK2 inh -1.23.
`Cc1cccc(-c2nc3scc(CCNS(=O)(=O)c4cc(F)ccc4F)n3n2)c1` gave TAR Tat displ 1.77.
Screening CNc1nc(Nc2ccccc2C)c2cnn(C)c2n1 returned TAR Tat displ 1.46.
CCN(CC)CCNC(=O)Cn1ncc2c3ccccc3n(C)c2c1=O was read as CDC25B CDK2 inh -1.57.
Screening Cc1cc(C(=O)NN)ccc1[N+](=O)[O-] returned CDC25B CDK2 inh -1.54.
Screening O=C(O)c1ccc(CS(=O)Cc2ccc(Cl)cc2)o1 (stereo not drawn) returned TAR Tat displ 1.59.
For COC(=O)c1ccc(Cl)cc1NC(=O)NCc1c(-n2cccc2)sc2c1CCCC2 the results were CDC25B CDK2 inh -2.67 and TAR Tat displ 1.86.
For Cc1ccc(CNC(=O)N2CCCC2c2cccs2)cc1 (stereo not drawn) the results were CDC25B CDK2 inh -2.25 and TAR Tat displ 0.56.
Cc1cccc(Nc2ncc3ncn(-c4cccc(C)c4)c3n2)c1 was read as CDC25B CDK2 inh -1.36 and TAR Tat displ 2.08.
Screening Cc1cc(C(F)(F)F)c2c(C)nn(-c3ccccc3Cl)c2n1 returned CDC25B CDK2 inh 1.16 and TAR Tat displ -0.06.
Screening O=c1cc(-c2cccc(Cl)c2)[nH]c2nc3ccccc3n12 returned CDC25B CDK2 inh 1.13 and TAR Tat displ 1.26.
O=C(NCC1c2ccccc2CCN1C(=O)CN1CCOCC1)C1CCCCC1 (stereo not drawn) was read as CDC25B CDK2 inh -0.42 and TAR Tat displ 1.59.
`Cc1cc(=O)nc2c3ccccc3n(C(C)C(=O)NCc3ccccc3Br)n12` (stereo not drawn) gave CDC25B CDK2 inh -0.65 and TAR Tat displ -0.36.
Cn1nc(C(=O)Nc2ccccc2Cl)c2c1-c1ccccc1SC2 was read as CDC25B CDK2 inh 0.39 and TAR Tat displ 0.42.
`Cc1ccc2c(=O)cc(C(=O)N(Cc3cccs3)C3CCS(=O)(=O)C3)oc2c1C` (stereo not drawn) gave CDC25B CDK2 inh -0.94 and TAR Tat displ 0.92.
COc1cc(OC)cc(C(=O)O/N=C2\CCOc3cc(OC)ccc32)c1 was read as CDC25B CDK2 inh -3.01.
Cn1cc(C(=O)NCC2COc3ccccc3O2)c(=O)c2cc(S(=O)(=O)N3CCCCC3)ccc21 (stereo not drawn) was read as CDC25B CDK2 inh 0.8 and TAR Tat displ 0.49.
Screening O=C(c1cc(-c2ccc(F)cc2)n[nH]1)N1CCN(c2ccc(N3CCOCC3)nn2)CC1 returned TAR Tat displ 1.35.
CCN(CC)CCOc1nnc(-c2ccc(OC)cc2)c2ccccc12 was read as CDC25B CDK2 inh 0.62.
For CC(C)(C)c1ccc(N=NC2C(=O)NN=C2N)cc1 (stereo not drawn) the results were CDC25B CDK2 inh -1.82.
Screening O=C(O)C1CCN(c2cnccn2)CC1 returned CDC25B CDK2 inh -0.39 and TAR Tat displ 0.89.
`COC(=O)C(Cc1c[nH]c2ccccc12)NS(=O)(=O)c1ccc(C)cc1` (stereo not drawn) gave CDC25B CDK2 inh -0.09.
O=[N+]([O-])c1cccnc1Sc1nnc(-c2cccc(Cl)c2)o1 was read as CDC25B CDK2 inh -0.7 and TAR Tat displ 0.76.
`COc1ccc(S(=O)(=O)N(C(=O)c2ccncc2)c2ccc3oc(=O)sc3c2)cc1OC` gave CDC25B CDK2 inh -3.46 and TAR Tat displ 0.02.
Screening CN(C)CCNc1oc(/C=C/c2ccc(F)cc2)nc1C#N returned CDC25B CDK2 inh -2.52 and TAR Tat displ -0.42.
For CC1CN(C(=O)N2CCC(C(=O)N3CCOCC3)CC2)c2cc(Cl)ccc2O1 (stereo not drawn) the results were TAR Tat displ 1.18.
For CCOC(=O)CCC(=O)OC(C(=O)c1ccccc1)c1ccccc1 (stereo not drawn) the results were CDC25B CDK2 inh -0.82.
For CC(C(=O)N1CCN(C(=O)c2ccco2)CC1)n1sc2ccccc2c1=O (stereo not drawn) the results were CDC25B CDK2 inh -1.61 and TAR Tat displ 1.96.
C=CCN1C=C(OC(=O)c2ccccc2OC)c2ccccc2S1(=O)=O was read as CDC25B CDK2 inh 0.62 and TAR Tat displ 0.38.
Cc1c(C(=O)NCCCN2CCCCC2)oc2ccc3c(c12)C(O)CC(C)(C)O3 (stereo not drawn) was read as TAR Tat displ 0.1.
For O=C(O)c1ccc(S(=O)(=O)c2ccc3c(c2)C(=O)N(c2cccc(C(=O)O)c2)C3=O)cc1 the results were CDC25B CDK2 inh -1.17.
For CCOc1ccc(-c2nc(Cn3nc(-c4ccc(OC)cc4)c4c(C)onc4c3=O)c(C)o2)cc1 the results were TAR Tat displ -0.05.
For CCOC(=O)CSc1nc2ncccc2c(=O)n1-c1ccccc1 the results were CDC25B CDK2 inh -1.12 and TAR Tat displ -2.35.

Two compounds picked at random from those above, as already listed:
Cn1nc(C(=O)Nc2ccccc2Cl)c2c1-c1ccccc1SC2 was read as CDC25B CDK2 inh 0.39 and TAR Tat displ 0.42.
For CCOC(=O)CCC(=O)OC(C(=O)c1ccccc1)c1ccccc1 (stereo not drawn) the results were CDC25B CDK2 inh -0.82.

Remaining list, next part.
Cc1ccc(Cl)cc1-n1ncc2c(N(C)Cc3ccccc3)ncnc21 was read as TAR Tat displ 0.64.
`CCOC(=O)c1noc(C)c1/C(C)=N/Nc1ccccc1Cl` gave CDC25B CDK2 inh -1.12.
O=C(CCCc1nnc2n3nc(-c4ccccc4)nc3c3ccccc3n12)NCCc1ccccc1 was read as CDC25B CDK2 inh -0.42 and TAR Tat displ -1.5.
Screening CCOC(=O)c1nc(C)sc1C(=O)/C=C/N(C)C returned CDC25B CDK2 inh -0.63.
For CC1CCN(C(=O)c2cc3sc(Cl)cc3n2C)CC1 the results were CDC25B CDK2 inh -0.33.
`O=C(O)CC(O)c1nc2ccccc2[nH]1` (stereo not drawn) gave CDC25B CDK2 inh -0.36 and TAR Tat displ -0.63.
COc1cc2c(cc1OC)C(c1ccncc1)CC(=O)N2 (stereo not drawn) was read as CDC25B CDK2 inh 1.13 and TAR Tat displ 0.96.
Screening O=S(=O)(NC1CCCCC1N1CCN(c2cccc(Cl)c2)CC1)c1ccccc1 (stereo not drawn) returned CDC25B CDK2 inh -4.78 and TAR Tat displ -0.79.
Screening CCOC(=O)C(CC(C)C)Nc1ncnc2onc(C)c12 (stereo not drawn) returned TAR Tat displ -0.17.
Screening CCOC(=O)c1sc2nc(C)nc(Oc3ccc4cnccc4c3)c2c1C returned TAR Tat displ 0.72.
O=S(=O)(c1cccc(Cl)c1)N1CCN(c2cc(-c3ccccc3)ncn2)CC1 was read as TAR Tat displ 2.11.
`CC(=O)O/N=C(\C)c1sc2ccc(Cl)cc2c1C` gave CDC25B CDK2 inh -0.34.
For COCCNC(=O)Cn1ncn2c(cc3ccccc32)c1=O the results were CDC25B CDK2 inh -1.08 and TAR Tat displ -0.41.
Screening Cc1ccc(CSc2ncc(CO)n2Cc2ccc(F)cc2)cc1 returned TAR Tat displ 0.83.
`CCOC(=O)C(C(NC(C)=O)c1ccccc1)[N+](=O)[O-]` (stereo not drawn) gave CDC25B CDK2 inh -2.68.
Screening O=C(Cn1ncc2c([nH]c3ccccc32)c1=O)Nc1ccc(F)c(Cl)c1 returned TAR Tat displ -0.01.
`OC1=CONN1c1cccc2ncccc12` gave CDC25B CDK2 inh -1.37 and TAR Tat displ -0.55.
`O=C1Nc2ccccc2C1Cc1nc2ccccc2c(=O)n1CCCO` (stereo not drawn) gave CDC25B CDK2 inh -0.28 and TAR Tat displ 0.98.
CC1=C(C)[N+](=O)C2(O)CCCCC2(C)N1[O-] (stereo not drawn) was read as CDC25B CDK2 inh -1.03.
For CCn1c2ccccc2c2nnc(NCCCN3CCN(c4ccccc4F)CC3)nc21 the results were CDC25B CDK2 inh -0.11 and TAR Tat displ 0.26.
For COC(=O)c1cc(NC(=O)c2cc(C(=O)OC)cc([N+](=O)[O-])c2)cc(C(=O)OC)c1 the results were CDC25B CDK2 inh -1.68.
Screening CN1CCN(CCNc2nc(-c3ccccc3F)no2)CC1 returned TAR Tat displ 1.45.
Screening CCC1CN(CC(=O)NC2CCCC2)c2ccccc2S1 (stereo not drawn) returned TAR Tat displ 0.83.
For O=S(=O)(c1ccc(Cl)cc1)N(Cc1ccc(Cl)cc1)Cc1cccnc1 the results were CDC25B CDK2 inh -0.89.
Cc1c(-c2nc(-c3ccc4c(c3)OCO4)no2)nnn1-c1ccccc1Br was read as TAR Tat displ -0.62.
CCOc1ccc(N(Cc2ccccc2C)C2=NC3CS(=O)(=O)CC3S2)cc1 (stereo not drawn) was read as CDC25B CDK2 inh 0.07 and TAR Tat displ 1.51.
`CCc1nc2c(cnn2-c2ccc(F)cc2)c(=O)n1-c1ccc(F)c(Cl)c1` gave TAR Tat displ 0.63.
`Cc1cc(Br)ccc1NC(=O)c1noc2c1CCc1sccc1-2` gave TAR Tat displ 0.41.
`O=C(Nc1ccccc1Br)c1csnn1` gave CDC25B CDK2 inh -0.43 and TAR Tat displ -0.89.
